# Screening results deposited in PubChem BioAssay by several laboratories.
# MLL AF4-AF9 inh: inhibitors of human MLL-AF4/AF9 interaction; inhibition, % at 10 µM; hit rate 0.47% among 350,000; P42568; AlphaScreen, biotin-AF4 peptide binding to FLAG-AF9;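 active = every replicate reaching a set inhibition limit, whatever the replicate mean, cut at about 25% in these data; inconclusive = mean inhibition reaches that limit but some replicates miss it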;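 note: 0% = plate neutral control median and 100% = total signal loss; the record names both 10 and 1 µM as test concentration; the first replicate is given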
# ALR inh: blocks human ALR sulfhydryl oxidase activity. P55789. purified ALR, DTT oxidation, H2O2 HRP-luminol luminescence. inhibition, % (no concentration beside the values). hit rate 3.8% among 290,000;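 active = mean and each replicate at 75% or more; inconclusive = only one of the two met; inactive = neither met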;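 note: stock transfer was 7.5 nL into about 7.5 µL; 0% = neutral wells and 100% = wells with inactivated enzyme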
# Target sequence (P55789 whole entry, looked up): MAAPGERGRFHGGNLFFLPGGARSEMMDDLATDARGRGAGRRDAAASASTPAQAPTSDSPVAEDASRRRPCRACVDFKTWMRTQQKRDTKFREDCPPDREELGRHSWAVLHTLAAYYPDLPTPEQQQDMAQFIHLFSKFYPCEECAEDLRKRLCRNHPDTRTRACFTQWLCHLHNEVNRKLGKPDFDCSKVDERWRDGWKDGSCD
# Vif A3G: inhibitors of Vif binding to APOBEC3G peptide, primary screen, biochemical, TR-FRET, GST-Vif 1-94, biotin-A3G peptide, dose response retest (AID 1117319); TR-FRET GST-Vif / biotin-A3G peptide binding; higher % means a stronger effect; test concentration not given here; strong numbers were not always called active; one-dose inhibition, %; IC50 in µM for titrated hits; hit rate 0.57% among 260,000;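 active = above the screen mean plus three standard deviations and confirmed in dose response; inconclusive = results disagree or hit not tested in dose response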;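 note: Vif residues 1-94 fused to GST binding biotinylated APOBEC3G peptide 110-148; 0% = full assay without inhibitor and 100% = GST in place of GST-Vif; retest series ran down from 100 µM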
# FGF22 binding: FGF22 (human) thermal shift binding; recombinant FGF22 thermal shift, SYPRO orange fluorescence; percent of sucrose octasulfate shift, DMSO zero; Q9HCT0; calls only at 9.99 µM; AID 651658; hit rate 1.5% among 340,000;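 active = melting point raised past a set limit in the mean and every replicate; inconclusive = no clear call; three in four hits are not shown here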
# Target sequence (Q9HCT0 whole entry, looked up): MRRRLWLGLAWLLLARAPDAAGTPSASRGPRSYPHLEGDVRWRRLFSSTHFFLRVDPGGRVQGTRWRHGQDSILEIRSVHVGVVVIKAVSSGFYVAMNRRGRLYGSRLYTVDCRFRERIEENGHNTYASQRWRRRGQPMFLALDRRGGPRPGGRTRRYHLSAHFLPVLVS
# E coli growth: inhibitors of Escherichia coli growth | hit rate 0.21% among 330,000 | OD600 absorbance (test concentration not listed) | OD600, 23 h; hits give low values;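 active = OD600 absorbance below the run mean of sample wells minus 3.6 SD, in any replicate, cut at about 0.56 in these data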;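 note: stock transfer was 300 nL into about 60 µL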
# HNF4A DNA FP: change in binding of human HNF4 alpha to DNA; P41235; HNF4a-FITC DNA binding, fluorescence polarization, 1 h; activity change, % at 10 µM; hit rate 0.3% among 360,000; in the data active = activity change above about 30%, passing the limit was not always enough;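 note: controls were the assay level and a saturating level of protein; the project sought stronger binding though the title names inhibitors; some compounds called inactive have numbers as strong as hits; positive values seem to mean higher polarization but the record does not say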
# Target sequence (P41235 whole entry, looked up): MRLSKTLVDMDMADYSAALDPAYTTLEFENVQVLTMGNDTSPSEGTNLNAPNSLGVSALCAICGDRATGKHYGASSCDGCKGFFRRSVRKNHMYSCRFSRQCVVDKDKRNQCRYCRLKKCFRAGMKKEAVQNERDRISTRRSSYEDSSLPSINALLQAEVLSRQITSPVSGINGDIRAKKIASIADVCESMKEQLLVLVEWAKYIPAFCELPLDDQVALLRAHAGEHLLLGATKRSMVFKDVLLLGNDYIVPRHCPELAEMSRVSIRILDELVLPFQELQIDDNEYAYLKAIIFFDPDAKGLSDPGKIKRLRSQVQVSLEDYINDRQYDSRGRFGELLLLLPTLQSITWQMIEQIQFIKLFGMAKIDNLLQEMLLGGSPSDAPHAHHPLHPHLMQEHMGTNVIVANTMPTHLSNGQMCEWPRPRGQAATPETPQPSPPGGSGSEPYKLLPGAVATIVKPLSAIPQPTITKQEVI
# rRNA inh HTS: selective bacterial rRNA inhibition in E. coli | GFP signal change (wild-type ribosome), % (concentration not given with the values) | AID 720706 | hit rate 1.6% among 350,000 | E. coli WT GFP vs humanized-ribosome RFP mutants, fluorescence, 24 h; hits give low values; DMSO median 0, no signal -100;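 active = significant combined selectivity score with lowered wild-type GFP, culture density cut under 30%, mutant RFP and density less affected; inactive = any of these conditions unmet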; note: one replicate is shown; some compounds called inactive have numbers as strong as hits
# rRNA inh HTS OD600: further read-out of rRNA inh HTS, marked with its call; OD600 change, %; measured here: OD600 growth;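 optical density of the mix in the first replicate; 0 = DMSO median and -100 = no signal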
# rRNA inh HTS RFP: also measured in rRNA inh HTS; calls as there; RFP signal change, %; measured here: RFP humanized mutant strains;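 first replicate; 0 = DMSO median and -100 = no signal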
# Starred values were filed as active, the others as inactive; i = inactive; ? = inconclusive; . = no result given; & = joins results of further samples.
canonical_smiles	MLL AF4-AF9 inh	ALR inh	Vif A3G	FGF22 binding	E coli growth	HNF4A DNA FP	rRNA inh HTS	rRNA inh HTS OD600	rRNA inh HTS RFP
Cc1ccc(OCCC(=O)OCC(=O)NC2CCCCC2)cc1	-2.0	.	1%	i	.	-0.8	17	16	6.9
COc1ccc2c3c(n(C)c2c1)[C@@H](CO)N(C(=O)Cc1ccccn1)CC31CN(CC2CCCC2)C1	7.5	.	.	i	.	.	8	16	0.4
COc1ccc(/C=C/C(=O)Nc2sc(Cc3ccccc3)c(C)c2C(N)=O)cc1	0.1	.	-10%	i	.	4.2	-6	2	1.3
COc1cccc(-c2ccc3c(c2)[C@@H]2[C@@H](CCN2C(=O)Cc2ccncc2)[C@@H](CO)N3)c1	0.9	.	.	i	.	.	0	5	-6.1
Fc1ccccc1C(c1nnnn1C1CCCC1)N1CCN(Cc2ccccc2)CC1 (centres undefined)	.	-1	-3%	.	0.71	0.8	.	.	.
CC(=O)NC(Cc1ccccc1)C(=O)NC(Cc1ccccc1)C(=O)O (centres undefined)	1.5	1	.	i	0.65	0.9	6	8	-0.5
COc1ccc(NC(=O)CN2C(=O)NC3(CC(C)CC(C)(C)C3)C2=O)cc1S(=O)(=O)N1CCCCC1 (centres undefined)	-13	-8	-2%	i	0.65	3.0	-6	-17	1.9
O=C(NCCN1CCOCC1)c1ccc2c(c1)N(Cc1ccc(F)cc1)C(=O)c1ccccc1S2(=O)=O	1.6	-10	.	i	0.67	5.5	1	0	1.0
Cn1cnc(S(=O)(=O)N2C[C@H](O)COC[C@@H]3O[C@@H](CC(=O)N4CCN(c5ccccc5)CC4)CC[C@H]32)c1	-0.9	.	.	i	.	.	5	17	3.1
CO[C@@H]1CN(C)C(=O)c2cc(NS(C)(=O)=O)ccc2OC[C@@H](C)N(C(=O)CN(C)C)C[C@@H]1C	-1.2	.	.	i	.	.	2	-1	1.8
COc1cc(OC)c2ccc(=O)oc2c1C(CC(=O)N1CCCC1)c1ccc(N(C)C)cc1 (centres undefined)	-4.2	99*	3%	i	0.7	0.8	2	-3	-1.2
O=C(NCC(=O)N1CCN(c2ccccc2)CC1)c1ccco1	-1.1	61	.	i	0.71	2.4	12	8	-1.9
COc1cc(/C=N/Nc2cccc(C)c2)cc(Br)c1O	3.0	.	7%	.	.	-2.2	1	9	3.1
CCCN(CC(=O)Nc1ccc(C(C)=O)cc1)CC(=O)Nc1ccccc1C	0.7	?	5%	i	0.66	-1.8	-9	-1	4.7
COc1cccc(-c2ccc3c(c2)[C@@H]2[C@@H](CCN2C(=O)c2ccccn2)[C@@H](CO)N3)c1	-1.5	.	.	i	.	.	-6	6	2.0
CCNC(=O)C[C@@H]1CC[C@@H](NS(=O)(=O)c2ccc(F)cc2)[C@@H](CO)O1	-0.9	.	.	i	.	.	0	15	-1.8
C[C@@H]1CN([C@@H](C)CO)C(=O)c2cccc(NC(=O)c3nc4ccccc4s3)c2O[C@H]1CN(C)Cc1ccncc1	5.0	.	.	i	.	.	-6	-1	-0.1
S=C(Nc1cc(Cl)cc(Cl)c1)N1CCN(c2ccccn2)CC1	-2.9	-26	.	i	0.68	4.2	-1	2	-0.8
Cn1cnc(S(=O)(=O)N[C@@H]2CC[C@H](CC(=O)NCC3CC3)O[C@H]2CO)c1	-0.4	.	.	i	.	.	2	-1	-1.0
CCc1csc(CCNC(=O)C2CCC(=O)N(CCOC)C2)n1 (centres undefined)	1.3	-33	.	i	0.7	-0.7	9	10	1.3
Cn1c(=O)cc(SCC(=O)NCCCN2CCOCC2)c2ccc(Cl)cc21	.	-1	0%	.	0.72	3.3	.	.	.
CC(C)OC(=O)C1C(=O)CC(C)(O)C(C(=O)OC(C)C)C1c1cccc([N+](=O)[O-])c1 (centres undefined)	-1.6	2	-6%	i	0.71	2.9	13	2	2.1
CSc1nc(Cl)c(Br)c(Nc2c[nH]c(=O)[nH]c2=O)n1	0.0	.	1%	i	0.6	-1.5	6	2	-0.3
CC(C)CC(NC(=O)CCC(=O)OCC(=O)[C@@]1(O)CCC2[C@@H]3CCC4=CC(=O)C=C[C@]4(C)C3[C@@H](O)C[C@@]21C)C(=O)O (some centres undefined)	0.2	-10	-6%	i	0.66	-0.4	3	4	2.4
COC(=O)[C@H]1C[C@@H]1[C@H](NC(=O)c1cnccn1)c1ccccc1	0.5	-7	-4%	i	.	-0.1	21	7	-2.0
COc1ccc(C(=O)NCCS(=O)(=O)N2CCCCCC2)cc1	-0.4	-4	0%	i	0.63	0.4	6	6	-1.2
COCCCNC(=O)C1CCN(S(=O)(=O)c2c(C)noc2/C=C\c2ccc(OC)cc2)CC1	.	12	6%	.	0.74	2.3	.	.	.
CN1CCCCN2[C@H](C1)[C@H](c1ccc(C#Cc3ccccc3F)cc1)[C@@H]2CO	7.6	.	.	i	.	.	-4	-13	0.3
Cc1ccc(F)cc1NC(=O)COC(=O)C1CCN(c2ccc(C(F)(F)F)cn2)CC1	7.1	-3	-5%	i	0.68	3.1	-29	-60	11
CCc1ccc(NC(=O)Nc2ccncc2)cc1	1.2	3	20%	i	0.62	3.2	-26	-31	6.2
C[C@H]1CN([C@@H](C)CO)C(=O)Cc2cc(NC(=O)NC3CCCCC3)ccc2O[C@@H]1CN(C)Cc1ccccc1	3.0	.	.	i	.	.	2	8	2.0
CCOC(=O)c1csc(-c2ccc3c(c2)CCO3)n1	3.2	.	-8%	i	0.7	-0.2	.	.	.
CCCCc1c(-c2ccccc2OC)ncn1Cc1cc(F)ccc1F	2.5	.	.	i	.	.	-52	-80	-13
CCOP(=O)(OCC)c1nc(-c2ccc(Cl)cc2Cl)oc1N1CCCCC1	9.4	-115	-6%	i	0.72	3.1	-40	-51	-5.8
CN(C)S(=O)(=O)c1ccc(C(=O)Nc2nc(-c3ccccc3)c(C(=O)c3ccccc3)s2)cc1	.	.	-303%	.	0.72	-1.4	.	.	.
O=C(COc1ccc(-n2cnnn2)cc1)Nc1ccc(F)c(F)c1F	-2.5	0	4%	i	0.66	-2.9	11	20	1.3
CC(C)C[C@H](NC(=O)[C@@H]1Cc2ccccc2CN1)C(=O)Nc1ccc(C(C)C)cc1	2.5	-5	.	i	0.59	1.2	-12	-36	20
COc1ccccc1N1CCN(/N=C/c2cccc(OC)c2O)CC1	9.3	93*	6%	i	.	2.6	-2	-5	0.8
O=C(COc1cc(F)ccc1[N+](=O)[O-])Nc1ccc(N2CCOCC2)cc1	3.1	?	2%	i	0.66	-0.6	7	0	-0.4
CC(=O)OCC1OC(OC(C)=O)C(NC(=O)Cc2ccccc2)C(OC(C)=O)C1OC(C)=O (centres undefined)	-1.1	.	30%	i	0.7	-1.5	26	6	0.4
CCCNC(=O)N(C)C[C@@H]1Oc2ncc(C#CC3(O)CCCC3)cc2C(=O)N([C@H](C)CO)C[C@@H]1C	-2.3	.	.	i	.	.	-1	-5	-1.4
Fc1cccc(NC(=S)N2CCn3cccc3C2c2cccnc2)c1 (centres undefined)	5.4	10	1%	i	0.71	6.3	-3	3	2.7
O=C1COc2ccc(C(=O)CSc3nnc(-c4cccs4)n3Cc3ccccc3)cc2N1	.	2	2%	.	0.72	1.0	.	.	.
CN1C(=O)CSC1=Nc1ccc(Br)cc1	-14	.	.	i	0.62	-2.6	10	0	0.4
O=C(CN(C(=O)c1csnn1)c1ccc2c(c1)OCCO2)NCc1ccccc1	-12	52	.	i	0.66	-1.3	2	2	-1.7
Cc1noc(C)c1NC(=O)Nc1ccc2c(c1)C(=O)N([C@H](C)CO)C[C@H](C)[C@@H](CN(C)S(=O)(=O)c1ccc(F)cc1)O2	-3.3&3.0	2	.	i	.	-1.2	7&5	13&-4	2.2&16
C[C@@H]1CCCCO[C@H](CN(C)Cc2ccc(Cl)c(Cl)c2)[C@@H](C)CN([C@H](C)CO)C(=O)c2cc(NC(=O)CCC(F)(F)F)ccc2O1	-7.3	.	.	i	.	.	0	1	3.3
O=Cc1cccc(OC(=O)/C=C/c2ccco2)c1	-1.7	98*	.	i	0.72	-33	25	20	4.2
Cc1nc(-c2nc(-c3c(C(=O)NN)noc3C)cs2)cs1	-3.0	49	.	i	0.65	2.1	2	-7	0.6
Cc1nc(=O)c(-c2ccccc2)c(C)n1-c1cccc(/C=C/C(=O)O)c1	-1.3	.	-5%	i	0.67	0.2	11	8	-0.6

# Additional results:
canonical_smiles	MLL AF4-AF9 inh	ALR inh	Vif A3G	FGF22 binding	E coli growth	HNF4A DNA FP	rRNA inh HTS	rRNA inh HTS OD600	rRNA inh HTS RFP
O=C(Nc1ccc2c(c1)OCO2)C1CCN(S(=O)(=O)c2cccc3cccnc23)CC1	.	.	33%	.	0.71	0.3	.	.	.
C[C@@H]1CN([C@@H](C)CO)C(=O)c2c(c3ccccc3n2C)-c2ccccc2CO[C@H]1CN(C)C(=O)[C@@H]1CCCN1C	-7.8	.	.	i	.	.	-1	-4	1.7
C[C@@H]1CN([C@@H](C)CO)C(=O)c2cccc(NC(=O)c3ccc(-c4nccs4)cc3)c2O[C@H]1CN(C)Cc1ccccc1	5.4	.	.	i	.	.	-5	-18	3.2
CCOC(=O)C1(C)CCCCCN1C(=O)c1snnc1C (centres undefined)	-0.6	.	.	i	.	4.2	14	8	-0.8
O=C(Nc1ccc(F)c(Cl)c1)NC1CC1	.	-15	?	.	0.71	0.4	.	.	.
Cc1c(C#N)c(NC(=O)CCl)n(Cc2ccccc2)c1C	4.3	96*	20%	i	0.72	-0.7	15	7	12
CCCCCc1ccc(CC(=O)Nn2c(C)nc3ccccc3c2=O)cc1	.	-3	-6%	.	0.64	0.9	.	.	.
NS(=O)(=O)c1ccc(NC(=O)CCC(=O)N2CCOCC2)cc1	1.4	4	.	i	.	0.1	3	16	-0.2
C=CCNC(=S)NNc1ncnc2sc3c(c12)CC(C)(C)OC3	.	99*	1%	.	0.65	1.1	.	.	.
C[C@H](c1ccccc1)N1C[C@@H](COCc2ccccc2)Oc2cc(N3CC[C@H](N(C)C)C3)ccc2S1(=O)=O	17	.	.	i	.	3.0	-50	-79	-7.9
O=C(CCCCn1c(=O)c2ccccc2n(CC(=O)NC2CCCC2)c1=O)NC1CCCC1	.	11	9%&-2%	.	0.78	-0.3	.	.	.
COCC(=O)Nc1ccc2c(c1)C(=O)N(C)[C@@H]1CC[C@@H](CC(=O)NC3Cc4ccccc4C3)O[C@H]1CO2	2.7	.	.	i	.	.	2	5	-1.9
CSCCC(NS(=O)(=O)c1ccccc1F)C(=O)NCC(c1ccco1)N(C)C (centres undefined)	-1.2	1	-10%	i	0.67	-2.5	11	12	0.5
Cc1cccc(-c2noc(-c3ccccc3C(=O)NCC3CCCO3)n2)c1 (centres undefined)	.	-2	-1%	.	0.73	-1.2	.	.	.
N#CCC(=O)N/N=C/c1ccc(Sc2nc3ccccc3s2)o1	.	13	7%	.	.	6.3	.	.	.
CC(C)(C)c1cc[n+](-c2nc([O-])sc2C=O)cc1	0.2	2	2%	i	0.75	-2.7	1	2	-0.4
CCSc1nc(N)nc(-c2cccs2)c1C#N	.	.	5%	.	0.7	-0.5	.	.	.

# This is a subset, so the mix of outcomes need not match the whole.
